FGF22 binding: binders of human FGF22 protein, primary screen, FGF22 synaptogenesis inhibitor project, biophysical, thermal shift, single point. Fibroblast growth factor 22 (Homo sapiens), Q9HCT0. recombinant FGF22 thermal shift, SYPRO orange fluorescence; percent of sucrose octasulfate shift, DMSO zero. calls only at 9.99 µM. 1.5% of 340,000 active. AID 651658, 2012;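 active means melting point raised past a set limit in the mean and every replicate; three in four hits are not shown here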
Target sequence (Q9HCT0 whole entry, looked up): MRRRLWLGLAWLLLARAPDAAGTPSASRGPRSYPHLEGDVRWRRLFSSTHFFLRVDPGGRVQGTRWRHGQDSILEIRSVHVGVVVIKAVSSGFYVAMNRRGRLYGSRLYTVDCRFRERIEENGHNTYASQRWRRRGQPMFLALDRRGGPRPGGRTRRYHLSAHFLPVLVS
Calls only; i = inactive; + = active, no number. These rows are one share of the data. The share of hits here may be higher or lower than overall.

SMILES	FGF22 binding
COc1ccc(S(=O)(=O)Nc2ccc3c(c2)C(=O)N([C@H](C)CO)C[C@@H](C)[C@H](CN(C)C(=O)Nc2ccc(C(F)(F)F)cc2)OCCCC[C@@H](C)O3)cc1	+
COc1ccc(S(=O)(=O)Nc2ccc3c(c2)C(=O)N([C@H](C)CO)C[C@H](C)[C@@H](CN(C)C(=O)Nc2ccc(C(F)(F)F)cc2)OCCCC[C@@H](C)O3)cc1	i
C[C@@H]1CN([C@@H](C)CO)C(=O)c2cc(C#CCN(C)C)cnc2O[C@@H]1CN(C)Cc1ccccc1	i
CN1C(=O)c2cc(NC(=O)C3CCOCC3)ccc2OC[C@H]2O[C@@H](CC(=O)NCCc3ccncc3)CC[C@H]21	i
COCC(=O)N1C[C@H](C)[C@@H](OC)CN(C)C(=O)c2cc(NC(=O)NC(C)C)ccc2OC[C@H]1C	i
COc1ccc2c3c(n(C)c2c1)[C@@H](CO)N(C(=O)c1ccc(F)cc1)CC31CCN(C)CC1	i
O=C(c1ccncc1)N1CC[C@@H]2[C@@H](CO)Nc3ccc(C4=CCCCC4)cc3[C@@H]21	i
COc1cccc(S(=O)(=O)N(C)C[C@H]2Oc3ncc(C#CCN(C)C)cc3C(=O)N([C@@H](C)CO)C[C@@H]2C)c1	i
O=C(c1ccccn1)N1C[C@@H]2[C@H](c3ccccc31)[C@@H](CO)N2C(=O)Nc1ccccc1	i
C[C@@H]1CN([C@@H](C)CO)S(=O)(=O)c2ccc(C3=CCCC3)cc2O[C@H]1CN(C)C(=O)c1ccccc1	i
C[C@H]1CN([C@@H](C)CO)C(=O)c2cc(-c3ccncc3)cnc2O[C@@H]1CN(C)C(=O)C1CCCCC1	i
COc1ccc(-c2ccc3c(c2)[C@H]2[C@H](CCN2C(=O)c2ccccc2F)[C@H](CO)N3C)cc1	i
C[C@@H]1ON(C)[C@H]2C[C@H]3c4cc(N5CCOCC5)ccc4CCN3C[C@@H]12	i
C[C@H]1CN([C@@H](C)CO)C(=O)Cc2cc(NC(=O)NC3CCCCC3)ccc2O[C@@H]1CN(C)S(=O)(=O)c1ccc(Cl)cc1	i
COc1ccc(NC(=O)N(C)C[C@@H]2Oc3c(NC(=O)Nc4c(C)noc4C)cccc3C(=O)N([C@H](C)CO)C[C@@H]2C)cc1	i
C[C@H]1CN([C@@H](C)CO)C(=O)c2cccc(NC(=O)C3CC3)c2O[C@@H]1CN(C)S(=O)(=O)c1cn(C)cn1	i
O=C(Cc1ccccc1)N1CC2(C1)[C@@H](c1ccccc1)[C@@H](CO)N2S(=O)(=O)Cc1ccccc1	i
COc1cccc(C#Cc2ccc3c(c2)O[C@H](CN(C)C)[C@@H](C)CN([C@H](C)CO)S3(=O)=O)c1	i
C[C@@H]1CN([C@H](C)CO)C(=O)Cc2cc(NC(=O)CCN3CCOCC3)ccc2O[C@H]1CN(C)Cc1ccncc1	i
COCC#Cc1ccc([C@H]2[C@@H](CO)N3CCCCN(Cc4cncnc4)C[C@@H]23)cc1	i
Cc1noc(C)c1NC(=O)N(C)C[C@H]1Oc2c(NS(=O)(=O)c3cccs3)cccc2C(=O)N([C@@H](C)CO)C[C@@H]1C	i
CO[C@H]1CN(C)C(=O)c2ccc(NC(=O)C3CC3)cc2OC[C@H](C)N(Cc2cc(F)ccc2F)C[C@@H]1C	i
CCCNC(=O)[C@@H]1[C@@H](CO)[C@@H]2Cn3c(ccc(/C=C/c4ccccc4)c3=O)[C@H]1N2C(=O)C1CCC1	i
C[C@H](CO)N1C[C@H](C)[C@H](CN(C)S(C)(=O)=O)Oc2ccc(NC(=O)Nc3cccc4ccccc34)cc2CC1=O	i
C[C@H](CO)N1C[C@H](C)[C@@H](CN(C)C(=O)Nc2cccc3ccccc23)Oc2c(NS(=O)(=O)c3ccccc3)cccc2C1=O	i

Reprinted from the part before: 2 compounds; new compounds follow.
SMILES	FGF22 binding
C[C@H](CO)N1C[C@H](C)[C@H](CN(C)S(C)(=O)=O)Oc2ccc(NC(=O)Nc3cccc4ccccc34)cc2CC1=O	i
C[C@H](CO)N1C[C@H](C)[C@@H](CN(C)C(=O)Nc2cccc3ccccc23)Oc2c(NS(=O)(=O)c3ccccc3)cccc2C1=O	i
O=C(CN1CCOCC1)NCC[C@H]1CC[C@H](NC(=O)Nc2ccc(Cl)cc2)[C@@H](CO)O1	i
C[C@@H]1CN([C@H](C)CO)C(=O)c2cccc(NC(=O)Nc3ccccc3)c2O[C@@H]1CN(C)C(=O)Nc1ccc(C(F)(F)F)cc1	i
CCCNC(=O)Nc1ccc2c(c1)C(=O)N(C)[C@@H]1CC[C@@H](CC(=O)NCCCN(C)C)O[C@H]1CO2	i
CCc1csc(N2[C@H](C#N)[C@@H](c3ccc(-c4cccc(F)c4)cc3)[C@H]2CO)n1	i
C[C@H](CO)N1C[C@H](C)[C@H](CN(C)C(=O)Nc2ccccc2)Oc2ccc(NC(=O)Cc3ccccc3)cc2CC1=O	i
C[C@@H]1CN([C@H](C)CO)C(=O)c2cccc(NC(=O)c3cnccn3)c2O[C@@H]1CN(C)CC1CCCCC1	i
CC(C)CC#Cc1ccc2c(c1)O[C@H](CN(C)C(=O)c1cnccn1)[C@@H](C)CN([C@H](C)CO)S2(=O)=O	i
O=C(Cc1ccncc1)NCC[C@@H]1CC[C@@H](NC(=O)C2CCCC2)[C@H](CO)O1	i
C[C@@H]1CCCCO[C@H](CN(C)CC2CC2)[C@@H](C)CN([C@H](C)CO)C(=O)c2cc(NS(=O)(=O)c3ccccc3)ccc2O1	i
CC(C)c1cn(CC[C@@H]2CC[C@H](NS(=O)(=O)Cc3ccccc3)[C@H](CO)O2)nn1	i
CCCNC(=O)Nc1ccc2c(c1)C(=O)N(C)[C@H]1CC[C@@H](CC(=O)O)O[C@H]1CO2	i
Cc1noc(C)c1NC(=O)Nc1ccc2c(c1)C(=O)N([C@@H](C)CO)C[C@@H](C)[C@H](CN(C)Cc1ccc(C(F)(F)F)cc1)O2	i
O=C(C[C@H]1CC[C@@H]2[C@H](COC[C@H](O)CN2C(=O)c2cccnc2)O1)Nc1ccc(-c2ccccc2)cc1	i
COc1ccccc1C#Cc1ccc2c(c1)[C@@H]1[C@@H](CCN1C(=O)CN1CCOCC1)[C@H](CO)N2	i
CO[C@@H]1CN(C)C(=O)c2ccc(NC(=O)C3CCCC3)cc2OC[C@@H](C)N(C)C[C@H]1C	i
C[C@@H]1CCCCO[C@@H](CN(C)S(=O)(=O)c2cn(C)cn2)[C@H](C)CN([C@H](C)CO)C(=O)c2cc(NS(=O)(=O)c3ccc(F)cc3)ccc2O1	i
N#C[C@@H]1[C@@H](c2ccc(C#CC3CCCC3)cc2)[C@H](CO)N1C(=O)Nc1ccc(F)cc1	i
Cc1ccccc1S(=O)(=O)N1CCCCN2[C@H](CO)[C@@H](c3ccc(-c4cncnc4)cc3)[C@H]2C1	i
CN(C)CC#Cc1ccc([C@@H]2[C@H]3CN(C(=O)Nc4cc(F)ccc4F)CCCCN3[C@H]2CO)cc1	i
Cc1noc(C)c1S(=O)(=O)N(C)C[C@@H]1Oc2ccc(NC(=O)CCC(F)(F)F)cc2CC(=O)N([C@H](C)CO)C[C@@H]1C	i
CC(=O)N(C)C[C@H]1Oc2cc(-c3ccccc3C)ccc2S(=O)(=O)N([C@H](C)CO)C[C@@H]1C	i
Cc1c(C2(O)CCCCC2)[nH]c2ccccc12	i
O=C(C[C@H]1C=C[C@H](NS(=O)(=O)c2ccc(F)cc2)[C@@H](CO)O1)NCc1ccncn1	i
COC(=O)[C@]12C[C@H](CC(=O)NCc3ccc(C)o3)C(=O)N(Cc3ccccc3)C1=C[C@H](C(C)C)O[C@@H]2C1CC1	i
COc1ccc(CN(C)C[C@@H]2OCCCC[C@H](C)Oc3ccc(NC(=O)NC4CCCCC4)cc3C(=O)N([C@@H](C)CO)C[C@@H]2C)cc1	i
O=C(Nc1nccs1)[C@H]1[C@H](CO)[C@H]2Cn3c(cccc3=O)[C@@H]1N2C(=O)C1CCCC1	i
CN(C)CC(=O)Nc1ccc2c(c1)[C@H]1C[C@@H](CC(=O)NCc3cc(F)ccc3F)O[C@H](CO)[C@H]1O2	i
O=C([C@H]1[C@H](CO)[C@H]2Cn3c(ccc(-c4ccncc4)c3=O)[C@H]2N1CCC(F)(F)F)N1CCOCC1	i
Cc1ccc(S(=O)(=O)NC(CCCNC(=O)OCc2ccccc2)C(=O)O)cc1 (stereo unspecified)	i
COc1ccc(NC(=O)N2C[C@@H](O)COC[C@H]3O[C@H](CC(=O)N4CCCCC4)CC[C@@H]32)cc1	i
C[C@@H]1ON(C)[C@H]2C[C@H]3c4[nH]c5c(-c6ccccc6)cccc5c4CCN3C(=O)[C@@H]12	i
C[C@@H]1CCCCO[C@H](CN(C)C(=O)Nc2ccc3c(c2)OCO3)[C@@H](C)CN([C@@H](C)CO)C(=O)c2cc(NS(=O)(=O)c3cccs3)ccc2O1	i
C[C@@H]1CN([C@@H](C)CO)C(=O)CCCn2nncc2CO[C@@H]1CN(C)C(=O)Nc1ccc2c(c1)OCCO2	i
CO[C@@H]1CN(C)C(=O)c2ccc(NC(=O)C3CC3)cc2OC[C@H](C)N(C)C[C@@H]1C	i
O=C(C1CCCCC1)N1[C@H](CO)[C@H]2c3ccccc3NC[C@H]21	i
C[C@H]1CN([C@@H](C)CO)C(=O)c2cc(NS(C)(=O)=O)ccc2O[C@@H]1CN(C)Cc1ccccc1	i
COCC(=O)Nc1ccc2c(c1)C(=O)N(C)C[C@H](OC)[C@@H](C)CN(Cc1ccccc1OC)[C@@H](C)CO2	i
Cn1cnc(CCNC(=O)C[C@H]2CC[C@H]3[C@@H](COC[C@@H](O)CN3C(=O)C3CCCC3)O2)c1	i
COc1ccc2c3c([nH]c2c1)[C@H](CO)N(C(=O)c1ccccc1)CC31CN(C)C1	i
CO[C@@H]1CN(C)C(=O)c2ccc(NC(=O)NC(C)C)cc2OC[C@H](C)N(Cc2ccccc2)C[C@H]1C	i
C[C@H](CO)N1C[C@H](C)[C@H](CN(C)Cc2ccccn2)Oc2ncc(C#Cc3cccc(F)c3)cc2C1=O	i
C[C@@H]1CN([C@@H](C)CO)C(=O)c2c(c3ccccc3n2C)-c2ccccc2CO[C@@H]1CN(C)Cc1ccc(C(F)(F)F)cc1	i
CCC(=O)N1CC[C@@H]2[C@H](CO)Nc3ccc(C#Cc4ccc(F)cc4)cc3[C@@H]21	i
C[C@H](O)C#Cc1ccc2c(c1)O[C@@H](CN(C)CC1CCCC1)[C@H](C)CN([C@@H](C)CO)S2(=O)=O	i
CO[C@@H]1CN(C)C(=O)c2cc(NC(=O)C3CCOCC3)ccc2OC[C@H](C)N(Cc2cccnc2)C[C@H]1C	i
O=C(C[C@H]1CC[C@H]2[C@@H](COC[C@H](O)CN2C(=O)c2cccnc2)O1)NCC1CC1	i
C[C@H]1CCCCO[C@@H](CN(C)S(=O)(=O)c2cccs2)[C@@H](C)CN([C@@H](C)CO)C(=O)c2cc(NS(=O)(=O)c3cn(C)cn3)ccc2O1	i
C[C@@H](NC(=O)C[C@H]1C=C[C@@H](NC(=O)C2CCC2)[C@H](CO)O1)c1ccccc1	i
CN(C)CC#Cc1ccc([C@@H]2[C@H]3CN(CC4CC4)CCCCN3[C@H]2CO)cc1	i
O=C(NC1CCCCC1)N1CC(=O)N2[C@H](CO)[C@H](c3ccc(-c4cccc(F)c4)cc3)[C@@H]2C1	i

More structures follow:
SMILES	FGF22 binding
C[C@H]1CN([C@@H](C)CO)C(=O)Cc2cc(NS(=O)(=O)c3ccc(Cl)cc3)ccc2O[C@H]1CN(C)C	i
C[C@@H]1CCCCO[C@H](CN(C)Cc2ccc(Cl)c(Cl)c2)[C@@H](C)CN([C@H](C)CO)C(=O)c2cc(NS(=O)(=O)c3ccccc3)ccc2O1	i
CO[C@H]1CN(C)C(=O)c2ccc(NS(=O)(=O)c3cn(C)cn3)cc2OC[C@H](C)N(C)C[C@H]1C	i
Cc1ccc(S(=O)(=O)N2CC[C@H]3[C@@H](CO)N(C)c4ccc(C#Cc5cccnc5)cc4[C@H]32)cc1	i
Cc1ccc(S(=O)(=O)NCC[C@@H]2CC[C@@H](NC(=O)Nc3ccccc3F)[C@@H](CO)O2)cc1	i
O=C(C[C@H]1C=C[C@H](NC(=O)Nc2cc(F)ccc2F)[C@H](CO)O1)NCc1ccc2c(c1)OCO2	i
CCC(=O)N(C)C[C@@H]1Oc2cc(C#C[C@@H](C)O)ccc2S(=O)(=O)N([C@@H](C)CO)C[C@H]1C	i
C[C@@H]1CN([C@H](C)CO)C(=O)c2cc(-c3ccc(C#N)cc3)cnc2O[C@@H]1CN(C)C(=O)Nc1ccc(F)cc1	i
C[C@@H]1CCCCO[C@@H](CN(C)C(=O)Cc2ccccc2)[C@H](C)CN([C@H](C)CO)C(=O)c2cc(NC(=O)Nc3ccc(F)cc3)ccc2O1	i
CCCNC(=O)C[C@@H]1CC[C@H]2[C@@H](COc3ccc(NC(=O)c4cccs4)cc3C(=O)N2C)O1	i

Sorted by length of the SMILES (smallest number first): part of the list above.
SMILES	FGF22 binding
CCCNC(=O)C[C@@H]1CC[C@H]2[C@@H](COc3ccc(NC(=O)c4cccs4)cc3C(=O)N2C)O1	i
O=C(C[C@H]1C=C[C@H](NC(=O)Nc2cc(F)ccc2F)[C@H](CO)O1)NCc1ccc2c(c1)OCO2	i
CO[C@H]1CN(C)C(=O)c2ccc(NS(=O)(=O)c3cn(C)cn3)cc2OC[C@H](C)N(C)C[C@H]1C	i
Cc1ccc(S(=O)(=O)N2CC[C@H]3[C@@H](CO)N(C)c4ccc(C#Cc5cccnc5)cc4[C@H]32)cc1	i
C[C@@H]1CN([C@H](C)CO)C(=O)c2cc(-c3ccc(C#N)cc3)cnc2O[C@@H]1CN(C)C(=O)Nc1ccc(F)cc1	i
C[C@@H]1CCCCO[C@@H](CN(C)C(=O)Cc2ccccc2)[C@H](C)CN([C@H](C)CO)C(=O)c2cc(NC(=O)Nc3ccc(F)cc3)ccc2O1	i
C[C@@H]1CCCCO[C@H](CN(C)Cc2ccc(Cl)c(Cl)c2)[C@@H](C)CN([C@H](C)CO)C(=O)c2cc(NS(=O)(=O)c3ccccc3)ccc2O1	i

Screens from PubChem BioAssay.
